HPGD inh = inhibitors of human 15-hydroxyprostaglandin dehydrogenase (HPGD) | 150,000 compounds, 4.3% hits | purified HPGD, NADH fluorescence kinetic, PGE2 substrate | P15428 | Potency, µM, inactives show top-dose activity change, negative = inhibition, hits mostly inhibitors; active = well fitted inhibition curve with a large enough effect (not every such curve was filed as active); inconclusive = small, poorly fitted or top-dose-only effect, or another doubt; inactive = no such curve, though single readings can be large or run the other way;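 also: top concentration of the series not given in the record; plate controls included wells without enzyme; inactives centre near -10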
Target sequence (P15428 whole entry, looked up): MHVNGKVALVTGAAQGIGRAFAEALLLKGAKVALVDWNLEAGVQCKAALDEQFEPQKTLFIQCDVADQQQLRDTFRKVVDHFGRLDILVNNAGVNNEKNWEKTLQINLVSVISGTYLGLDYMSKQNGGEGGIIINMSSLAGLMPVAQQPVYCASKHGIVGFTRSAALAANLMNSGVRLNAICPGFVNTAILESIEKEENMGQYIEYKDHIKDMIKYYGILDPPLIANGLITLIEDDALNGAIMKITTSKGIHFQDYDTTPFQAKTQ
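NADH formation kinetics: reaction with 30 uM PGE2 and 1 mM NAD+ (final), 20 nM enzyme, Tris-HCl pH 8 with Tween 20, after 15 min compound preincubation at room temperature. Fluorescence change, last versus first of five reads.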
Active calls of the source: *; ? = inconclusive. % is scaled to controls: 0 for no effect and ±100 for the full control effect; potency is read from the fitted curve at half-maximal effect. These rows are one share of the data. The share of hits here may be higher or lower than overall.

Cc1sc(NC(=O)CSc2nnc(-c3ccccc3)o2)c(C#N)c1C
  HPGD inh: -3%

COc1ccc(OC)c(-n2cc3c(=O)n(C)c(=O)n(C)c3c2)c1
  HPGD inh: -22%

COc1ccccc1NC(=O)CC(NCCN(C)C)C(=O)O (configuration not stated)
  HPGD inh: -6%

COc1ccnc(CS(=O)c2nc3ccc(OC(F)F)cc3[nH]2)c1OC (configuration not stated)
  HPGD inh: ?

CCN(CC)c1ccc(-n2c(C)cc(C=O)c2C)cc1
  HPGD inh: 2%

COCCn1c(=O)[nH]c2cc(C(=O)NCCc3ccc(OC)c(OC)c3)ccc2c1=O
  HPGD inh: -2%

COc1ccc2oc(C)c(C(=O)Cn3ccnc3)c2c1
  HPGD inh: -9%

O=C(C1CCCN(Cc2ccccc2Br)C1)N1CCCCC1 (configuration not stated)
  HPGD inh: 25µM*

O=S(=O)(Cc1ccccc1)N1CCCC(c2nc(-c3ccc(F)cc3)no2)C1 (configuration not stated)
  HPGD inh: -6%

O=C1c2ccccc2NC(c2ccco2)N1O (configuration not stated)
  HPGD inh: -17%

CC12CCC3c4ccc(O)cc4CCC3C1CCC2=O (configuration not stated)
  HPGD inh: 5%

CCc1ccc(NSc2ccccc2[N+](=O)[O-])cc1
  HPGD inh: 0%

CCOC(=O)C1=C(C)N(C)C(C)=C(C(=O)OCC)C1c1ccc(C(=O)OC)cc1
  HPGD inh: -14%

COc1ccccc1NC(=S)N1CCN(C/C=C/c2ccccc2)CC1
  HPGD inh: 4%

CCOc1ccc(-n2c(SCC(=O)N3CCc4ccccc43)nnc2-c2c[nH]c3ccccc23)cc1
  HPGD inh: -15%

CCCN1Cc2cccc(C(=O)Nc3ccc(-c4nc5ccccc5[nH]4)cc3)c2C1=O
  HPGD inh: -18%

O=C(O)CC(c1cccc2ccccc12)n1cccc1 (configuration not stated)
  HPGD inh: 35µM*

COc1ccccc1NC(=S)NC(=O)C1CC1
  HPGD inh: -6%

CCc1ccc(NC(=O)CSCc2nc(N)nc(Nc3ccccc3CC)n2)cc1
  HPGD inh: -4%

COc1ccc(S(=O)(=O)N2C3CCC2CC(NC(=O)NC2CCCCC2)C3)cc1 (configuration not stated)
  HPGD inh: 3%

Cc1cc(OCc2nc(N)nc(N)c2-c2ccc(Cl)c(Cl)c2)ccc1[N+](=O)[O-]
  HPGD inh: -1%

CCOC(=O)c1c(C)oc2cc(Br)c(OC(C)C(=O)OCC)cc12 (configuration not stated)
  HPGD inh: -24%

Cn1c(SCC(=O)N2CCN(c3cccc(Cl)c3)CC2)nnc1-c1ccncc1
  HPGD inh: -8%

O=C(NC12CC3CC(CC(C3)C1)C2)c1ccc(COc2ccc(Cl)cc2[N+](=O)[O-])o1
  HPGD inh: -19%

NCCn1c(-c2ccccc2)cc(C(=O)O)c1-c1ccccc1F
  HPGD inh: -19%

O=C(COC(=O)c1ccc(Br)o1)Nc1cccc(S(=O)(=O)N2CCCCCC2)c1
  HPGD inh: -9%

CCc1ccc(-c2cn3nc(C)c(C)nc3n2)cc1
  HPGD inh: -3%

Cc1[nH]nc2c1C(C1CC=CCC1)C(C#N)=C(N)O2 (configuration not stated)
  HPGD inh: -10%

COc1ccccc1C1CC(=O)Oc2cc(OC)c(OC)c(OC)c21 (configuration not stated)
  HPGD inh: -6%

COc1ccc(C(C)=O)c(Oc2nc(CN3CCOCC3)nc3scc(-c4cccs4)c23)c1
  HPGD inh: -14%

O=C(CSc1nnnn1-c1ccccc1)Nc1nc(-c2ccccc2)ns1
  HPGD inh: -2%

CCc1ccc(-c2csc(NC(=O)c3cccnc3)n2)cc1
  HPGD inh: -8%

Cc1nc(CCNS(=O)(=O)c2cccs2)cs1
  HPGD inh: -6%

Cc1cccc2c(=O)n3c(nc12)CCCCC3
  HPGD inh: -10%

CC1=C(C(=O)NCc2ccccc2)C(c2cccs2)n2ncnc2N1 (configuration not stated)
  HPGD inh: -16%

COc1cc2oc(=O)cc(-c3ccc(-c4ccc(NC(C)=O)cc4)cc3)c2c(OC)c1OC
  HPGD inh: ?

Cn1c(N=Nc2ccccc2)nc2ccccc21
  HPGD inh: -22%

FC(F)(F)c1n[nH]c(=S)n1/N=C/c1ccco1
  HPGD inh: -9%

COC(=O)CN(c1cc(OC)ccc1OC)S(=O)(=O)c1ccc(OC)c(OC)c1
  HPGD inh: 4%

Cc1ccc2[nH]c(=O)c(C(c3nnnn3CC3CCCO3)N3CCOCC3)cc2c1 (configuration not stated)
  HPGD inh: -26%

Cc1cccc(N=C2NC(=O)/C(=C/C=C/c3ccco3)S2)c1C
  HPGD inh: 7.9µM*

COc1ccc2nc(NC3=NCN(CC4CCCO4)CN3)nc(C)c2c1 (configuration not stated)
  HPGD inh: -9%

COCCCNC(=O)C1CCN(C(=O)c2cc3sccc3n2Cc2ccc(F)cc2)CC1
  HPGD inh: -1%

Cn1c(=O)c2c(nc(SCC(=O)Nc3ccccc3)n2C)n(C)c1=O
  HPGD inh: -13%

CCc1ccc(-c2nc(CS(=O)CC(=O)NCc3cccnc3)c(C)o2)cc1 (configuration not stated)
  HPGD inh: -18%

CCOc1cc(C2c3c(n[nH]c3C)C(=O)N2c2ccc(C)cc2)ccc1O (configuration not stated)
  HPGD inh: -22%

FC(F)(F)c1cc(-c2ccccc2)nc(N2CCOCC2)n1
  HPGD inh: -10%

CCCn1c(C)nc2c(NCCCCN(C)C)nc(C)nc21
  HPGD inh: -5%

O=C(O)CCC(=O)N1N=C(c2c(-c3ccccc3)c3cc(Cl)ccc3[nH]c2=O)CC1c1ccco1 (configuration not stated)
  HPGD inh: -15%

CCc1ccc(-c2cc(C(=O)NN3CCN(C)CC3)c3ccccc3n2)cc1
  HPGD inh: -12%

COC(=O)Nc1cc([N+](=O)[O-])ccc1OC
  HPGD inh: -7%

COc1ccc(CCN(Cc2cc3cc(C)c(C)cc3nc2Cl)C(=O)C2CC2)cc1
  HPGD inh: -4%

CCOC(=O)NC(Nc1cc(C)on1)(C(F)(F)F)C(F)(F)F
  HPGD inh: -9%

CCn1c(C)c(C(C)=O)c(NCc2ccccc2)nc1=S
  HPGD inh: -18%

CC(C)NC(=O)c1ccc(COCC(F)(F)C(F)F)cc1
  HPGD inh: -20%

C/C(=N\NC(=O)c1ccc([N+](=O)[O-])c(C)c1)c1ccccc1Cl
  HPGD inh: -14%

c1cnc(N2CC[N+]3(CCCC3)CC2)nc1
  HPGD inh: -15%

COc1ccc(-c2nnc3ccc(SC(C(C)=O)C(C)=O)nn23)cc1OC
  HPGD inh: 14µM*

COC(=O)Cc1c(C)c2ccc(OCc3nn[nH]n3)c(C)c2oc1=O
  HPGD inh: ?

COc1ccc(NC(=O)CCOc2ccccc2)c(OC)c1
  HPGD inh: ?

N#Cc1ccc(N=c2ssnc2Cl)cc1
  HPGD inh: 2µM*

O=C(O)c1ccc(S(=O)(=O)NC2CCCc3ccccc32)cc1 (configuration not stated)
  HPGD inh: -13%

O=C(CCC(=O)NCCCc1ccccc1)NCCCc1ccccc1
  HPGD inh: -10%

CCCC(=O)Nc1nnc(CCOC)s1
  HPGD inh: -12%

O=c1c2ccccc2c(/C=N/c2ncn[nH]2)c(O)n1Cc1ccccc1
  HPGD inh: -25%

CCOC(=O)CN1C(=O)C(O)(CC(=O)c2cccc(OC)c2)c2ccccc21 (configuration not stated)
  HPGD inh: 0%

CCSc1nnc(-c2ccccc2NC(C)=O)c(=O)[nH]1
  HPGD inh: -21%

O=C1O/C(=C/C(=O)N2CCOCC2)c2ccccc21
  HPGD inh: -5%

O=P(O)(O)O[C@@H]1O[C@H](CO)[C@@H](O)[C@H](O)[C@@H]1O
  HPGD inh: -1%

Cc1cc(Cl)ccc1NC(=O)CCC(=O)O
  HPGD inh: 4%

CC(C)(C)NC(=O)Cn1cc(C#N)c2cc(Br)ccc21
  HPGD inh: -12%

CC1(C)CC(=O)C2=C(C1)N=c1s/c(=C/c3ccc(F)c(F)c3)c(=O)n1C2c1ccc(F)cc1 (configuration not stated)
  HPGD inh: -3%

COc1ccc(Cl)cc1C(=O)NNC(=S)NC(=O)c1cc(-c2ccccc2)nc2ccccc12
  HPGD inh: ?

CC1=C(C(=O)NCc2ccco2)C2(CCC(C)CC2)OC1=O (configuration not stated)
  HPGD inh: -11%

CCCCOC(=O)Cn1c(-c2ccccc2)nc2ccccc2c1=O
  HPGD inh: -17%

CCOC(=O)c1cnc(SC)nc1Nc1cccc2ccccc12
  HPGD inh: -18%

Cc1ccc(Nc2cc(C)nc3c(C)ccc([N+](=O)[O-])c23)cc1
  HPGD inh: -10%

Cc1cc(C(=O)Nc2cccc(C(=O)O)c2)c(C)o1
  HPGD inh: -3%

O=[N+]([O-])c1ccccc1/C=C/C=N/n1c(-c2ccccc2)n[nH]c1=S
  HPGD inh: 7.1µM*

O=C(C1CCC1)N1CCC(c2nc3c(nnn3Cc3c(F)cccc3Cl)c(=O)[nH]2)CC1
  HPGD inh: -18%

COc1ccc(C(=O)NNC2=NC(C)(C)Cc3cc(C)c(C)cc32)cc1
  HPGD inh: -11%

CCCCC(=O)Nc1cc(OC)c(NC(=O)C2CCCCC2)cc1OC
  HPGD inh: -5%

C=CCn1c(N)c(C(=O)Nc2ccccc2)c2nc3ccccc3nc21
  HPGD inh: -3%

Cc1cc(N)ccc1N=Nc1c(C)n(C)n(-c2ccccc2)c1=O
  HPGD inh: -19%

Cc1ccc2occ(/C=N/O)c(=O)c2c1
  HPGD inh: -18%

Cc1ccc(C)c(CSc2nnc(CCN)o2)c1
  HPGD inh: 2%

c1ccc(COc2ccc(CN3CCN(c4ccccn4)CC3)cc2)cc1
  HPGD inh: -23%

CCOC(=O)C1CCN(C(=O)CN(c2ccc(OC)cc2)S(=O)(=O)c2c(C)nn(C)c2C)CC1
  HPGD inh: -6%

CCC(=O)Nc1nnc(Cc2ccccc2)s1
  HPGD inh: -13%

O=C(NCCCN1CCOCC1)c1cc(-c2ccc3c(c2)OCO3)nc2ccccc12
  HPGD inh: -19%

COc1ccccc1NS(=O)(=O)c1cc(C(=O)NCc2ccco2)ccc1C
  HPGD inh: -4%

CC1CCCCN1C(=O)c1cc(F)c(F)cc1Cl (configuration not stated)
  HPGD inh: 20µM*

CC1=C(C(=O)OC(C)(C)C)C(c2cccs2)NC(=O)N1 (configuration not stated)
  HPGD inh: -1%

CCCc1cc(=O)[nH]c(SCC(=O)N(C)Cc2ccccc2)n1
  HPGD inh: -4%

O=C(CC(SCCO)c1ccc2c(c1)OCO2)c1ccco1 (configuration not stated)
  HPGD inh: -9%

O=S(=O)(c1ccc(N2CCOCC2)nc1)N1CCOCC1
  HPGD inh: -18%

CCn1c(COc2ccccc2C)nnc1SCC(=O)Nc1ccc2c(c1)OCCO2
  HPGD inh: -4%

COc1ccc(CC(=O)OCC(=O)NC(=O)NC(C)C)cc1
  HPGD inh: -7%

Cc1cc2ccccc2nc1SCC(=O)Nc1nc(-c2ccccc2)cs1
  HPGD inh: -9%

COc1ccc2c(c1)OC(O)(C(F)(F)C(F)F)CC2=O (configuration not stated)
  HPGD inh: -22%

CCOC(=O)CNC(=O)c1cn(C)c(=O)c2cc(OC)c(OC)cc12
  HPGD inh: ?

Cn1c(=O)c2ncn(CC(=O)NCCOc3ccccc3)c2n(C)c1=O
  HPGD inh: -8%

COC(=O)c1ccc(NC(=O)CSc2nnc(-c3ccncc3)n2N)cc1
  HPGD inh: -26%

Cc1ccc(CSc2nnc3c(n2)OC2(Nc4ccccc4-3)C(=O)Nc3ccc(F)cc32)cc1 (configuration not stated)
  HPGD inh: -11%

CCOc1ccccc1NC(=O)CCCc1nc2ccccc2c(=O)[nH]1
  HPGD inh: -5%

O=C(NCC(=O)N(c1ccc2c(c1)OCCO2)C(C(=O)NC1CCCC1)c1ccco1)c1ccco1 (configuration not stated)
  HPGD inh: -18%

COc1cc(CCC(=O)Nc2ccc(Br)c(C(F)(F)F)c2)cc(OC)c1OC
  HPGD inh: -9%

Cc1ccc(CCNC(=O)C2CCC(=O)N2C2CCCC2)cc1 (configuration not stated)
  HPGD inh: -14%

NC(=O)[C@@H]1CCCNc2c(F)cc([N+](=O)[O-])cc2C(=O)N[C@@H](CO)C(=O)NCC(=O)N1
  HPGD inh: -3%

CC(=O)Nc1ccc(S(=O)(=O)N2CCN(C)CC2)cc1
  HPGD inh: -7%

CC(=O)C1C(c2ccc(Br)cc2)C2C(C)=NN=C2CC1(C)O (configuration not stated)
  HPGD inh: -6%

c1ccc(Oc2ccc(-n3cnnn3)cc2)cc1
  HPGD inh: -6%

O=C(COc1ccccc1)Nc1nc(-c2ccc(S(=O)(=O)N3CCOCC3)cc2)cs1
  HPGD inh: -13%

Cc1ccc(S(=O)(=O)N(Cc2nccn2C)C(C)C)cc1
  HPGD inh: -2%

Cc1ccc(Sc2cnc3ccccc3n2)cc1
  HPGD inh: -21%

Cc1cc(C)c2c(N=CN(C)C)c(C(=O)N3CCN(c4ncccn4)CC3)sc2n1
  HPGD inh: -8%

O=C1N(c2cccc(Cl)c2)C(c2ccccc2)N2CCCN12 (configuration not stated)
  HPGD inh: 5%

O=S(=O)(N1CCOCC1)N1CCCN(S(=O)(=O)N2CCOCC2)CC1
  HPGD inh: -3%

COC(=O)c1ccc(N2CCC(c3cc(-c4ccc(OC)cc4)n[nH]3)CC2)c([N+](=O)[O-])c1
  HPGD inh: -10%

CC1(C)CC(=O)c2c(n(S(=O)(=O)c3ccccc3)c3ccc(NS(=O)(=O)c4ccccc4)cc23)C1
  HPGD inh: -16%

CC(=O)NCCC(=O)Nc1cccc(S(=O)(=O)N(C)c2ccccc2)c1
  HPGD inh: -8%

Cc1ccccc1NC(=S)NCc1ccc2c(c1)OCO2
  HPGD inh: ?

Cc1cc(C)c([N+](=O)[O-])cc1NC(=O)CCSc1ccccc1Cl
  HPGD inh: -5%

High-throughput results deposited in PubChem by National Center for Advancing Translational Sciences (NCATS).
